# Bioassay records from PubChem.
# Calb biofilm kill: mixtures killing C. albicans biofilm. hit rate 0.02% among 120,000. inhibition, % at 7.6 µM. C. albicans biofilm persisters + clotrimazole, fluorescence viability; primary screen in compound mixtures of four per well;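 active = inhibition above 30.3% in the primary screen of four-compound pools, then above 30% when the compound was retested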;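 also: compounds exposed to preformed 24 h biofilms for 48 h; the number belongs to the whole pool; some results filed as inactive read as strong as hits; inactives centre near 12; 0% = biofilm with clotrimazole alone and 100% = kill control; retested singly at about 60 µM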
#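 System: C. albicans CAF4-2 wild-type biofilms; Medium: RPMI/MOPS medium, pH 7.0; Reagent: Clotrimazole, 50 µg/mL; Times: biofilm formation 24 h, compound exposure 48 h, 37 °C; Detection: 2-h Alamar Blue fluorescence, 535/590 nm excitation/emission; Evaluation: percent inhibition of biofilm viability.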
# * = called active by the depositor.
SMILES,Calb biofilm kill
COc1ccc(C(=O)OCCNC(=O)c2ccncc2)cc1OC,5
O=C(Nc1ccc(-c2cn3c(n2)SCC3)cc1)c1ccc2c(c1)OCO2,13
NS(=O)(=O)c1ccc(CNC(=O)c2csc3c2CCCC3)cc1,20
CCc1nnc(NC(=O)CSc2nc3c(C)cccc3[nH]2)s1,21
O=C1C2CCCN2C(c2ccco2)N1c1ccc(F)cc1 (stereo unspecified),10
CC(=O)c1cn(C)c(=O)c2ccccc12,1
CN1CCN(CC2(O)CCN(S(=O)(=O)c3ccc(Cl)cc3)CC2)CC1,16
CCCCn1c(N)c(N2CCOCC2)c(=O)n(CC(=O)NC(C)c2ccccc2)c1=O (stereo unspecified),1
Cc1cc(C)cc(N(CC(=O)NC2CCC(C)CC2)S(=O)(=O)c2c(C)[nH]c(=O)[nH]c2=O)c1 (stereo unspecified),7
COc1cc(C(O)P(=O)(OC(C)C)OC(C)C)cc(OC)c1OC (stereo unspecified),17
CCOC(=O)C(NC(C)=O)(Nc1ccc(S(N)(=O)=O)cc1)C(F)(F)F (stereo unspecified),7
S=c1nc(-c2ccccc2Br)[nH][nH]1,12
CCOc1ccc(C(=O)Nc2ccc(NC(=O)c3cccs3)cc2)cc1[N+](=O)[O-],9
Cn1c(S(=O)(=O)Cc2ccc(Cl)cc2)nc2ccccc21,10
CNC1=C([N+](=O)[O-])CC([N+](=O)[O-])=C(N2CCNCC2)N1C,8
Fc1cccc(/C=C2\CCCC3=C2NC(=S)NC3c2cccc(F)c2)c1 (stereo unspecified),13
Cc1cccc(NC(=S)NNC(=O)c2cccc([N+](=O)[O-])c2)c1,0
CN(C)S(=O)(=O)c1cccc(NC(=S)N/N=C/C(c2ccccc2)c2ccccc2)c1,12
Cc1cc2cc(CNC(=O)c3ccc(Br)o3)ccc2[nH]1,11
C=CCn1c(=NC(=O)c2ccc(S(=O)(=O)N3CCCc4ccccc43)cc2)sc2cc(S(N)(=O)=O)ccc21,5
Cc1cc(C)[n+]2[nH]c(N)c(N=Nc3ccccc3)c2n1,17
Cc1ccc(NC(=O)C(=Cc2ccc(C(=O)O)cc2)C(=O)Nc2ccc(C)cc2C)c(C)c1,18
Cn1c(=O)n(C)c2cc(S(=O)(=O)Nc3cc(Cl)ccc3O)ccc21,2
CCOC(=O)c1c(C)[nH]c(C(=O)CN2CCN(CC)CC2)c1C,21
Cc1cccc(C)c1Nc1nnc(SC/C(O)=C(\C#N)c2nc3ccccc3[nH]2)s1,4
Nc1nc(SCC(=O)c2ccc(Br)s2)n[nH]1,5
COc1ccc(N2CCN(c3nc4ccc(C)cn4c(=O)c3C=O)CC2)cc1,17
CCOC(=O)C1(CCc2ccccc2)CCN(C(=O)C2CCCO2)CC1 (stereo unspecified),11
COC(=O)c1ccc2nc(NC(=O)CSCC(=O)OCC(=O)c3ccccc3)sc2c1,9
Cc1ccc(C(=O)NC2(C(F)(F)F)NC(=O)N(c3ccc(Cl)cc3)C2=O)cc1 (stereo unspecified),13
Cc1ccc(-n2c([S-])c(C(=O)NC(C)c3ccccc3)[n+]3ccccc23)cc1 (stereo unspecified),14
CN(C)Cc1cc(O)c(CN(C)C)cc1O,18
Cn1ccc(-c2cc(C(=O)O)c3ccccc3n2)n1,2
N#Cc1c2ccc(OCC(N)=O)cc2n2ccccc12,20
O=C(Nc1ccc(Cl)c(S(=O)(=O)N2CCOCC2)c1)c1cn2ccccc2n1,2
CC(C)c1ccc(NC(=O)c2cc(Br)ccc2Br)cc1,1
CC(C)(C)C(=O)NC1(C(F)(F)F)NC(=O)N(c2ccccc2F)C1=O (stereo unspecified),14
Cc1ccc2c(N)c(C(=O)N(c3ccccc3)c3ccccc3)sc2n1,8
Cc1ccc(O)c(NC(=O)CSc2n[nH]c(C)c2[N+](=O)[O-])c1,18
O=C(Nc1nc(-c2cccnc2)cs1)c1ccccc1Cl,19
C/C(=N\N=C\c1ccc(N(C)C)cc1)c1cccc([N+](=O)[O-])c1,14
CCOC(=O)c1nn(-c2ccc(OCC)cc2)c2nc(CC(C)C)c(C#N)c(=O)n12,13
CC1CCCC(C)N1CC(O)COc1c(F)cc(Br)cc1F (stereo unspecified),5
O=C(CSc1nnc(-c2ccc(Cl)cc2)n1-c1ccc(Cl)cc1)N/N=C/c1ccco1,17
CCN(CC)S(=O)(=O)c1cc(NS(=O)(=O)c2cccc(Cl)c2Cl)ccc1C,8
Cc1ccc(C2C3=C(CC(C)(C)CC3=O)NC3=C2C(=O)c2ccccc23)cc1 (stereo unspecified),11
COc1ccc(OC)c(CN(CCN2CCOCC2)C(=O)Nc2cccc(Cl)c2)c1,11
CCOC(=O)CNc1nc2ccccc2n2c(C)nnc12,13
Cc1c(NC(=O)C(C)OC(=O)/C=C/c2ccccc2)c(=O)n(-c2ccccc2)n1C (stereo unspecified),12
CC(C)c1nnc(NC(=O)CCC(=O)NCCc2ccccc2)s1,27
O=C(NCCCO)c1ccc(CSc2nc3ccccc3[nH]2)cc1,7
S=c1[nH]nc(Cc2cccs2)n1-c1ccccc1Cl,3
CCOc1ccc(/C(CC)=N/NC(=O)C2(C)CC2(Br)Br)cc1 (stereo unspecified),10
O=C(COC(=O)CCCN1C(=O)c2ccccc2C1=O)Nc1cc(Cl)cc(Cl)c1,6
CC(/C=C/c1ccccc1)=N/NC(=O)CCC(=O)Nc1ccccc1C,10
Cc1ccc(NC(=O)CN(C)CC(=O)Nc2ccc(F)c(Cl)c2)cc1,13
O=C(Nc1cccc(C(F)(F)F)c1)c1cccnc1NCCc1ccccc1,23
Cn1nnnc1SCC(=O)NCc1ccc2c(c1)OCO2,12
CCOC(=O)c1ccc(NC(=O)CSc2nnc(C3CC3)n2CC)cc1,5
CC1CCC2(CC1)NC(=O)N(CC(=O)NCc1ccc3c(c1)OCO3)C2=O (stereo unspecified),22

# Gathered by group, the compounds so far with a Cl atom (12)
SMILES,Calb biofilm kill
CN1CCN(CC2(O)CCN(S(=O)(=O)c3ccc(Cl)cc3)CC2)CC1,16
Cn1c(S(=O)(=O)Cc2ccc(Cl)cc2)nc2ccccc21,10
Cn1c(=O)n(C)c2cc(S(=O)(=O)Nc3cc(Cl)ccc3O)ccc21,2
Cc1ccc(C(=O)NC2(C(F)(F)F)NC(=O)N(c3ccc(Cl)cc3)C2=O)cc1 (stereo unspecified),13
O=C(Nc1ccc(Cl)c(S(=O)(=O)N2CCOCC2)c1)c1cn2ccccc2n1,2
O=C(Nc1nc(-c2cccnc2)cs1)c1ccccc1Cl,19
O=C(CSc1nnc(-c2ccc(Cl)cc2)n1-c1ccc(Cl)cc1)N/N=C/c1ccco1,17
CCN(CC)S(=O)(=O)c1cc(NS(=O)(=O)c2cccc(Cl)c2Cl)ccc1C,8
COc1ccc(OC)c(CN(CCN2CCOCC2)C(=O)Nc2cccc(Cl)c2)c1,11
S=c1[nH]nc(Cc2cccs2)n1-c1ccccc1Cl,3
O=C(COC(=O)CCCN1C(=O)c2ccccc2C1=O)Nc1cc(Cl)cc(Cl)c1,6
Cc1ccc(NC(=O)CN(C)CC(=O)Nc2ccc(F)c(Cl)c2)cc1,13

# Continuation:
SMILES,Calb biofilm kill
Cc1cc(C(=O)O)n(C(C)(C)C)n1,20
Cc1ccc(OCC(=O)Nc2ccc(S(=O)(=O)Nc3ccccn3)cc2)cc1,-1
C/C(=N\NC(=O)c1ccc(NS(=O)(=O)c2cccs2)cc1)c1ccc2ccccc2c1,14
O=C(NN1C(=O)C2C3C=CC(O3)C2C1=O)c1ccncc1 (stereo unspecified),3
O/N=C/c1cn(-c2ccccc2)nn1,10
CCOC(=O)C/C(N)=N/NC(=O)c1ccc(Cl)cc1Cl,16
Nc1c(C(=O)Nc2ccc(F)cc2)sc(=S)n1-c1ccccc1F,0
COc1ccc(/C=N/NC(=O)c2ccncc2)cc1COc1ccc(NC(C)=O)cc1,23
O=C(NCCC1=CCCCC1)C1CCC(CNc2c(N3CCCC3)c(=O)c2=O)CC1 (stereo unspecified),16
CCCOc1ccc(C(=O)NC(=S)NCc2cccnc2)cc1,15
CC[n+]1ccc(C[n+]2ccccc2)c2ccccc21,10
O=C(NC(=S)Nc1ccc2c(c1)OCCO2)c1cccc2ccccc12,9
CC(C)Sc1n[nH]c(=O)n1-c1ccccc1,12
COc1ccc(NC(C)c2ccccc2)cc1 (stereo unspecified),32
CCOc1ccc(S(=O)(=O)Nc2nccs2)cc1,17
Cc1ccc(NC(=O)C(=O)NCC2OCCc3ccccc32)cc1 (stereo unspecified),26
COC(=O)C(CC(C)C)N1CCC(=O)c2ccccc2S1(=O)=O (stereo unspecified),11
Cc1ccccc1N(CC(=O)NC1CCCC1)C(=O)c1csnn1,-1
COCCn1c(=NC(=O)c2cccs2)sc2cc(NC(C)=O)ccc21,12
CCOC(=O)c1ccc(NC2Nc3cc(C)nn3S2)cc1 (stereo unspecified),14
CC(=O)Cc1nsc(Nc2ccc(Cl)cc2)n1,17
O=C(Nc1ccc2c(c1)OCO2)c1ccc(NC2CC2)c([N+](=O)[O-])c1,19
C=CCNC(=S)NNC(=O)COc1ccc2cc(Br)ccc2c1,9
O=c1c2nccnc2[nH]c(=S)n1Cc1ccccc1,9
O=C1c2cccnc2C(Nc2ccc(Cl)cc2)N1Cc1cccs1 (stereo unspecified),19
NNC(=O)c1ccncc1,10
CC(C)(C)C(=O)NC(CC(=O)O)c1ccccc1 (stereo unspecified),-2
O=C(CCl)NNC(=O)c1c(O)c2ccccc2[nH]c1=O,16
Cc1cc(C)c(/C=C(\C#N)S(=O)(=O)c2ccccc2)[nH]1,7
COc1ccc(C2=CC(c3ccco3)n3ncnc3N2)cc1 (stereo unspecified),-5
C=CCNC(=O)COc1cc(C)cc(C)c1C,8
CC(C)c1nnc(NC(=O)CCC(=O)N2CCN(C3c4ccccc4-c4ccccc43)CC2)s1,24
COc1ccc(C(=O)NCCN2C(=O)S/C(=C\c3cccnc3)C2=O)cc1[N+](=O)[O-],5
N/C(=N\OC(=O)c1cccs1)c1cccc([N+](=O)[O-])c1,14
COc1cc2cc(CN(CCCN3CCOCC3)Cc3nnnn3Cc3ccccc3)c(=O)[nH]c2cc1OC,-3
CC1(C)Cc2nc3sc(C(=O)NCCCO)c(N)c3cc2CS1,14
C/C(=N/NC(=O)c1ccc(O)cc1)c1cccc([N+](=O)[O-])c1,23
C=CCNC(=S)NNC(=O)c1ccc(OCCC)cc1,11
CC(=O)OCC1OC(Nc2cccc(C)c2)C(OC(C)=O)C(OC(C)=O)C1OC(C)=O (stereo unspecified),13
CCN1CCN(C(=O)C2(NC(=O)Nc3cccc(F)c3)CCCCC2)CC1,15

# Reformatted bar-delimited: part of the list above.
molecule | Calb biofilm kill
N#Cc1c2ccc(OCC(N)=O)cc2n2ccccc12 | 20
C/C(=N\N=C\c1ccc(N(C)C)cc1)c1cccc([N+](=O)[O-])c1 | 14

# Next part.
SMILES,Calb biofilm kill
COc1ccc(-c2noc(CCCC(=O)Nc3cccnc3)n2)cc1OC,0
CCOC(=O)C1(Cc2ccccc2Cl)CCN(S(C)(=O)=O)CC1,15
COc1ccc(S(=O)(=O)NCCN2CCNC2=O)cc1OC,28
CC(C)(C)C(=O)Nc1cc(C(F)(F)F)ccc1N1CCOCC1,8
Cc1ccc(Nc2nnc(SCC(=O)c3ccc(Br)s3)s2)c(C)c1,8
Cc1nc2c(-c3ccc(Cl)cc3)cnn2c2c1CCC2,29
Cc1ccc(S(=O)(=O)N(C)C)cc1NC(=O)c1n[nH]c(=O)c2ccccc12,10
O=C(COC(=O)CCc1c[nH]c2ccccc12)NC1CCS(=O)(=O)C1 (stereo unspecified),12
CCOC(=O)c1c(-c2ccccc2Cl)csc1NC(=O)c1cc(S(=O)(=O)N2CCOCC2)ccc1C,4
CCS(=O)(=O)n1nc(-c2ccc(Cl)cc2)nc1SCc1ccccc1,12
CS(=O)(=O)Nc1ccc(C(=O)Nc2ccccc2Cl)cc1,12
CC(C)Oc1ccc(C(=O)NC(=S)Nc2ccc(Cl)c(C(=O)O)c2)cc1,11
CCN1CCN(CCCNC(=O)CCc2nc(-c3ccc(OC)cc3)no2)CC1,20
NC(=S)C1COc2ccccc2O1 (stereo unspecified),25
O=C(O)CC(NC(=O)C1c2ccccc2Oc2ccccc21)c1ccc(Cl)cc1 (stereo unspecified),4
CCOCC(=O)OCC(=O)Nc1cc(OC)c([N+](=O)[O-])cc1C,10
COc1ccccc1NC(=O)C(C)Nc1ccc(C)c(Cl)c1 (stereo unspecified),10
CS/C(=N\N(C)C(N)=O)c1ccccc1,14
NC(=O)Cc1ccc2c(c1)[nH]c1ccccc12,10
COc1ccc(CC(=O)Nc2cccc(-c3ccc4nnc(C)n4n3)c2)cc1,-6
Cc1ccc(-c2cc(C(=O)O)c3sc(N4CCCCC4)nc3n2)cc1,14
Cc1ccc(S(=O)(=O)Cn2nnnc2C(c2ccccc2)N2CCN(c3ccccc3)CC2)cc1 (stereo unspecified),10
COc1ccc(CCNC(=O)C2CCN(S(=O)(=O)c3ccc(Cl)cc3)CC2)cc1OC,7
O=C(/C=C/c1cccc(Br)c1)Nc1nn[nH]n1,13
CCOc1ccc(N2C(=O)CN(C)C2=S)cc1,17
Cc1ccc2c(c1)C(=O)OC1(O)C3C4C=CC(C4)C3C(=O)N21 (stereo unspecified),27

# These rows are one share of the data (hit frequency here may not be typical).
